ALR H2O2 inh: inhibitors of human sulfhydryl oxidase ALR. P55789. purified ALR, DTT oxidation, H2O2 HRP-luminol luminescence. inhibition, % (test concentration not listed). 290,000 compounds, 3.8% hits;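 active = mean and each replicate at 75% or more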;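 also: stock transfer was 7.5 nL into about 7.5 µL; 0% = neutral wells and 100% = wells with inactivated enzyme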
Target sequence (P55789 whole entry, looked up): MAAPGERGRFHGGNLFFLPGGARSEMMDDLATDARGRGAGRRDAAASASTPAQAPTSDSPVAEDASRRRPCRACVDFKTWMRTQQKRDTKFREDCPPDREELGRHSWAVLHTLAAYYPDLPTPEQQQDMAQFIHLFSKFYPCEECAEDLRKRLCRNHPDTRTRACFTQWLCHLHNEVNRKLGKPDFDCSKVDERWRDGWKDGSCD
UCH37 DUB inh: human UCH37 deubiquitinating enzyme inhibition. purified proteasome/UCH37, Ub-AMC cleavage fluorescence. inhibition, % (no concentration beside the values). 330,000 compounds, 0.33% hits. AID 588478;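 active = mean of two replicates above 20%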;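 also: 0% = compound-free wells with enzyme and 100% = wells lacking proteasome; stock transfer was 100 nL into about 20 µL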
Target sequence (Q9Y5K5 whole entry, looked up): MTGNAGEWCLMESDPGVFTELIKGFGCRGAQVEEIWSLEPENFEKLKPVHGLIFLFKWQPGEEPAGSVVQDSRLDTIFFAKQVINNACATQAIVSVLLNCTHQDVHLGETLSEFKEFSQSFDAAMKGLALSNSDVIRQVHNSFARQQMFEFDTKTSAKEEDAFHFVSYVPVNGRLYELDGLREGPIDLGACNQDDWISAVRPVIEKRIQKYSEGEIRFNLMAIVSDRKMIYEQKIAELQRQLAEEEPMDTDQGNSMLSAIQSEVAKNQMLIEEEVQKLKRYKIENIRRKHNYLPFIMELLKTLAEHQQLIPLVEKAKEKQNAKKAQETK
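Signal – fluorescence, ex 355 nm, em 460 nm · System – Proteasome-bound UCH37 · Input – 0.15 nM proteasome as dispensed · Timing – 30 min preincubation with enzyme, 25 min cleavage at room temperature · Read-out basis – percent inhibition of cleavage signal versus uninhibited and no-proteasome wells · Medium – Tris-HCl pH 7.4 with ATP-MgCl2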
HNF4A DNA FP: change in binding of human HNF4 alpha to DNA. HNF4a-FITC DNA binding, fluorescence polarization, 1 h. activity change, % at 10 µM. 360,000 compounds, 0.3% hits. AID 1224865; in the data active = activity change above about 30%, passing the limit was not always enough;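 also: controls were the assay level and a saturating level of protein; the project sought stronger binding though the title names inhibitors; some compounds called inactive have numbers as strong as hits; positive values seem to mean higher polarization but the record does not say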
Target sequence (P41235 whole entry, looked up): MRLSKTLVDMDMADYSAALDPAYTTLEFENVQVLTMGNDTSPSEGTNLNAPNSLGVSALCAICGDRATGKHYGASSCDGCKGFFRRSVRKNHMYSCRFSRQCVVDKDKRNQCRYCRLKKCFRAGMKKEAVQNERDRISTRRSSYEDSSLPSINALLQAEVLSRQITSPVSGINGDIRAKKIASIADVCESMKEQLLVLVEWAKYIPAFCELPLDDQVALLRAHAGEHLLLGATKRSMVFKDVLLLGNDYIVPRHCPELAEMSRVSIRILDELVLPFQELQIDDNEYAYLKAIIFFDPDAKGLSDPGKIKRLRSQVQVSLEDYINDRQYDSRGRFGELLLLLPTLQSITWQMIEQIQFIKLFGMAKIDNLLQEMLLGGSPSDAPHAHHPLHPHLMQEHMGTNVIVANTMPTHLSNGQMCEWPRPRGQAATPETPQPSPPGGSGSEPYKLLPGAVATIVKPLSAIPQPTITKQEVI
FGF22 binding: binders of recombinant human FGF22 by thermal shift. SYPRO orange fluorescence; percent of sucrose octasulfate shift, DMSO zero. calls only at 9.99 µM. 340,000 compounds, 1.5% hits. Q9HCT0;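 active = melting point raised past a set limit in the mean and every replicate; three in four hits are not shown here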
Beta2AR agonist: agonists of human beta-2 adrenergic receptor inducing internalization | Am2.2-beta2AR cells, FAP receptor internalization, flow cytometry; reference of the scale not given here | 340,000 compounds, 0.43% hits | response, % (no concentration beside the values) | P07550;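 active = response above a set limit, near 3 SD of response in nonfluorescent compounds, cut at about 42% in these data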;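 also: stock transfer was 100 nL into about 11 µL; a reference agonist was the positive control; negative values mostly stem from fluorescent compounds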
LANA-H2A inh: blocks KSHV LANA binding to histone H2A/H2B. cell-free LANA-H2A/H2B peptide, fluorescence polarization. inhibition, % (no concentration beside the values). 320,000 compounds, 0.6% hits. AID 2629; in the data active = inhibition mostly above about 10%, no sharp cut-off; inactive = mostly below about 6.7%;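 also: stock transfer was 7.5 nL into about 10 µL; 0% = median of vehicle wells and 100% = median of positive control wells; one replicate is shown; the record names a cut of 25% in any replicate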
Ecoli growth: inhibitors of Escherichia coli growth | AID 1053175 | OD600 absorbance (test concentration not listed) | OD600, 23 h; stronger effect = lower value | 330,000 compounds, 0.21% hits;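 active = OD600 absorbance below the run mean of sample wells minus 3.6 SD, in any replicate, cut at about 0.56 in these data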;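 also: stock transfer was 300 nL into about 60 µL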
Numbers without * were called inactive; i = inactive; . = no result given. Some of the compounds tested, so the mix of outcomes need not match the whole.

Beta2AR agonist	Ecoli growth	LANA-H2A inh	FGF22 binding	UCH37 DUB inh	HNF4A DNA FP	SMILES	ALR H2O2 inh
9	0.68	0.6	i	12	2.4	Cc1cccc(-c2onc3ccc(C(=O)/C=C/N(C)C)cc23)c1	1
12	0.69	-2.8	.	0.9	0.3	CCC(C(=O)OC)n1cnc2c(cnn2-c2ccc(Cl)cc2)c1=O (stereo unspecified)	1
11	0.71	0.6	.	3.5	0.9	CC(=O)c1cccc(NC(=O)c2ccc(N(Cc3ccccc3)S(C)(=O)=O)cc2)c1	-7
-9	0.69	-1.3	i	2.4	0.3	N/C(=N\OC(=O)COc1cc(Cl)c(Cl)cc1Cl)c1ccccn1	-2
-3	.	17*	.	.	-0.3	CCN(CC)CCCN1C(=O)C(=O)/C(=C(/O)c2ccccc2)C1c1cc(OC)ccc1OC (stereo unspecified)	-9
2	0.69	-1.5	i	4.1	-1.6	CCN(CC)S(=O)(=O)c1ccc(C(=O)Nc2cc(S(=O)(=O)N3CCOCC3)ccc2O)cc1	-1
4	0.73	3.5	.	2.0	4.1	COc1ccc(-c2noc(CCC(=O)NCCCN3CCC(Cc4ccccc4)CC3)n2)cc1	-4
5	.	-4.1	.	4.7	-0.3	CCOC(=O)C1=NN(C(=O)Nc2cccc(C(F)(F)F)c2)C2C(=O)N(c3cccc(C(F)(F)F)c3)C(=O)C12 (stereo unspecified)	32
-5	0.75	1.5	i	6.6	0.1	CC(=O)N1c2ccc(S(=O)(=O)N3CCC(C(=O)NC4CCCC(C)C4C)CC3)cc2CC1C (stereo unspecified)	.
3	0.79	0.6	.	-2.8	1.5	O=C(CN1CCCCC1)Nc1ccc(F)c(Cl)c1	-43
10	0.67	2.7	i	-13	-4.0	Cc1ccc(Oc2nc3ccccn3c(=O)c2/C=C(\C#N)C(=O)Nc2c(C)n(C)n(-c3ccccc3)c2=O)c(C)c1	3
-2	0.72	0.0	.	-0.3	-1.6	CCOC(=O)c1c(C)[nH]c(N=Nc2ccccc2)c1C	87*
-6	0.68	8.1	i	6.3	-1.6	CC(=O)Nc1nnc(S(=O)(=O)N2CCN(c3ccc([N+](=O)[O-])cc3Cl)CC2)s1	-7
3	0.7	-0.5	i	2.2	-0.7	CCc1cc2cc(C)c(C)cc2nc1SCC(=O)NNC(=O)c1ccco1	.
-4	0.7	-2.4	.	-6.8	-3.3	Nc1ccc(C(=O)OCc2nc3ccccc3[nH]2)cc1	-7
4	0.67	-2.7	.	-236	-3.2	CC(=O)NN1C(=O)c2ccccc2NC1c1ccccn1 (stereo unspecified)	-2
.	0.69	.	.	3.7	.	Cc1nc2scc(-c3ccccc3)c2c(=O)n1N=C1C=CC(=O)C=C1	.
0	0.68	.	i	3.8	-6.2	Cc1ccc(OCC(=O)NNC(=O)C2CSC3(C)CCC(=O)N23)cc1C (stereo unspecified)	.
-2	0.64	-1.9	i	5.6	-5.7	O=C(NCCc1ccccc1)c1cc([N+](=O)[O-])ccc1N1CCOCC1	3
1	0.66	-5.3	i	-27	-1.1	Cc1cccn2c(=O)c(C(=O)NCCCN3CC(C)CC(C)C3)c(O)nc12 (stereo unspecified)	2
8	0.69	1.3	.	2.1	6.8	Cn1c(=O)c(C(=O)CN2CCc3ccccc32)c(N)n(Cc2ccccc2)c1=O	-11
1	.	-3.0	i	.	-0.2	O=C(Nc1cc(S(=O)(=O)Nc2ccc(Cl)cc2)ccc1O)c1ccc(F)cc1F	-4
-7	0.66	2.6	.	7.6	2.1	O=C(Nc1ccccc1-c1nnn(CC(=O)N2CCc3ccccc3C2)n1)C1CCC1	-1
18	0.68	1.4	i	5.0	0.0	OCC1(Cc2ccccc2)CCN(C2CCN(c3ccccc3F)CC2)CC1	-7
-9	0.66	-4.3	i	-257	3.4	Cc1cc(N2CCOCC2)nc2ccc(NC(=O)CCC(=O)N3CCN(c4ccccc4F)CC3)cc12	-2

4 entries picked at random from those above:
Beta2AR agonist	Ecoli growth	LANA-H2A inh	FGF22 binding	UCH37 DUB inh	HNF4A DNA FP	SMILES	ALR H2O2 inh
18	0.68	1.4	i	5.0	0.0	OCC1(Cc2ccccc2)CCN(C2CCN(c3ccccc3F)CC2)CC1	-7
8	0.69	1.3	.	2.1	6.8	Cn1c(=O)c(C(=O)CN2CCc3ccccc32)c(N)n(Cc2ccccc2)c1=O	-11
5	.	-4.1	.	4.7	-0.3	CCOC(=O)C1=NN(C(=O)Nc2cccc(C(F)(F)F)c2)C2C(=O)N(c3cccc(C(F)(F)F)c3)C(=O)C12 (stereo unspecified)	32
4	0.67	-2.7	.	-236	-3.2	CC(=O)NN1C(=O)c2ccccc2NC1c1ccccn1 (stereo unspecified)	-2

Going on with the list.
Beta2AR agonist	Ecoli growth	LANA-H2A inh	FGF22 binding	UCH37 DUB inh	HNF4A DNA FP	SMILES	ALR H2O2 inh
10	0.71	4.0	i	6.0	-0.8	O=C(/C=C/c1ccc(Cl)cc1)NC(=S)Nc1ccc(C(=O)O)cc1	-1
-116	0.71	-0.7	.	2.7	3.0	CC(=O)c1cc2c(C)c(C(=O)c3ccccc3)oc2cc1O	-5
-2	0.73	3.2	i	2.0	0.4	CCN(CCCNC(=O)CCCOc1cc(=O)n(C)c2ccccc12)Cc1ccccc1	-8
-1	0.65	4.7	i	0.3	-2.0	Cc1cc(=O)[nH]c(SCC(=O)Nc2nonc2C)n1	-7
4	.	2.1	i	.	0.4	Cc1cccc(/C=N/NC(=O)Cn2nc(C)cc2C)n1	-3
4	0.68	4.8	.	-0.3	-0.3	O=C(NCN1C(=O)C2C3C=CC(C3)C2C1=O)Nc1nncs1 (stereo unspecified)	-5
2	.	-2.6	i	.	0.6	O=C(N/N=C/c1ccccc1C(=O)O)c1cccc(S(=O)(=O)N2CCCCC2)c1	0
1	.	.	i	.	-1.1	COc1cc(OC)nc(/N=C/N(C)C)n1	.
-20	0.69	-4.4	i	1.8	0.8	O=C(COC(=O)C1(c2ccc(Cl)cc2)CCCC1)N1CCc2ccccc21	5
7	0.66	.	i	4.6	2.6	CCC(C)C(N=C1NS(=O)(=O)c2ccccc21)C(=O)N1CCC(C)CC1 (stereo unspecified)	.
8	0.65	3.0	i	0.5	3.3	COc1ccc(C)cc1NC(=O)C1CCN(S(=O)(=O)c2ccc3c(c2)NC(=O)CO3)CC1	-12
1	0.72	-4.1	.	0.5	-1.4	CC(=O)Nc1nc(SCc2ccc(Cl)cc2Cl)n[nH]1	2
-1	0.7	4.7	.	1.2	6.5	CCC1(C)CC(c2nc(-c3ccc(OC)cc3)cs2)CCS1 (stereo unspecified)	.
3	0.72	-3.3	.	1.1	-0.7	Cc1ccc(C(=O)O/N=C(\N)c2ccc(Br)cc2)cc1	-2
2	0.64	1.3	i	-7.5	-3.4	O=C(CN1CCN(c2ccccn2)CC1)Nc1cccc(S(=O)(=O)N2CCCC2)c1	-8
.	0.74	-2.6	i	5.3	-2.4	Cc1cccc(NC(=O)CN(C)C(=O)c2ccc(N3CCCCCC3)c([N+](=O)[O-])c2)c1C	-2
2	0.7	-3.9	i	4.8	-6.7	COc1ccc(CCN=Cc2c(C)[nH]n(-c3ccc([N+](=O)[O-])cc3)c2=O)cc1OC	-1
19	0.73	-2.4	.	6.3	0.3	NC(=O)CSc1nc2ccccc2c(=O)n1Cc1ccco1	-17
21	0.64	0.5	i	-2.3	-1.6	COc1ccccc1N1CCN(C(=O)c2sc3nc(C)nc(N4CCN(c5ccccn5)CC4)c3c2C)CC1	-1
13	0.69	-2.3	.	1.9	-0.7	COc1ccc(CCC(C)Nc2cccc(F)c2)cc1 (stereo unspecified)	.
-6	0.72	-6.2	i	1.1	-2.0	Cc1ccc2oc(C(=O)N3CCN(C)C[C@@H]3C(C)C)c(C)c2c1	.
-2	0.7	.	i	-3.2	4.2	COc1ccc(Oc2coc3cc(OC(=O)/C=C/c4ccccc4)ccc3c2=O)cc1	.
1	0.77	-2.1	i	7.1	-4.0	COc1ccc(NC(=O)c2ccc(NC3=NC4CS(=O)(=O)CC4S3)cc2)cc1 (stereo unspecified)	-1
13	0.74	0.0	.	0.9	0.7	COc1ccc(Cl)cc1C(=O)n1nc(C)cc1C	-9
-1	0.7	-2.4	.	4.6	-0.4	CCCCC(=O)Nc1cc(OCC)c(NC(=S)NC)cc1OCC	-36
4	.	1.7	i	.	-2.0	Cc1cc(Cn2nc(-c3ccccc3)cc2C(=O)NCc2cccc(C(F)(F)F)c2)on1	-2
-2	0.68	4.2	i	0.5	-2.6	c1ccc(-n2nnnc2SCCCSc2nc3ccccc3s2)cc1	.
-13	0.73	-1.5	.	2.4	-0.1	O=C(c1nn(-c2ccccc2)c(=O)c2ccccc12)N1CCN(c2ccccn2)CC1	3
0	0.61	-7.2	i	4.4	2.4	Cc1cccc(C(=O)NC2=NCCS2)c1	-13
-1	0.7	.	i	-4.3	0.1	CCOC(=O)C1=CN(Cc2cccc(-c3ccc(F)cc3)c2)S(=O)(=O)N(C)C1C (stereo unspecified)	.
10	0.7	-4.3	i	6.7	0.5	Cc1ccccc1NC(=O)Cc1nc(COC(=O)c2cc([N+](=O)[O-])ccc2NCCO)cs1	-6
-1	0.68	-1.8	i	2.3	3.1	O=C(Nc1ccccc1)c1nc[nH]c1C(=O)NCCN(CCNC(=O)c1[nH]cnc1C(=O)Nc1ccccc1)CCNC(=O)c1[nH]cnc1C(=O)Nc1ccccc1	-4
-2	0.69	-7.5	.	4.4	-2.1	COc1ccc(C2=CC(c3sccc3C)n3nnnc3N2)cc1 (stereo unspecified)	1
6	0.67	-12	.	3.3	2.5	N/C(=N\OC(=O)C12CC3CC(CC(C3)C1)C2)c1cccnc1	4
20	.	0.8	i	.	2.8	COc1cccc2cc(C(N)=O)/c(=N\NC(=O)c3ccccc3)oc12	-6
-3	0.65	2.5	i	0.6	-2.6	O=C(c1ccc(NC2=NC3CS(=O)(=O)CC3S2)cc1)N1CCN(c2ccccc2F)CC1 (stereo unspecified)	-2
-12	0.65	1.6	.	2.5	-1.9	O=c1[nH]c(CSc2nc(-c3ccc(F)cc3)cs2)nc2ccccc12	-8
-2	0.69	5.1	.	4.7	-2.8	O=S(=O)(c1ccc2oc3ccc(S(=O)(=O)N4CCCCC4)cc3c2c1)N1CCCCC1	-16
11	0.65	-1.2	i	i	0.5	CCOC(=O)CN1C(=O)/C(=C/c2cccc(Br)c2)Oc2ccccc21	9
-2	0.69	-9.8	i	6.0	1.1	CC(C)CN(C(=O)c1cccc(S(=O)(=O)N2CCN(c3ccc(F)cc3)CC2)c1)C1CCS(=O)(=O)C1 (stereo unspecified)	6
-7	0.72	1.7	i	0.3	-4.9	Cc1ccc(Nc2nc(-c3cccnc3)cs2)cc1Cl	-4
8	0.65	4.0	i	2.2	6.0	O=[N+]([O-])c1ncccc1OCc1ccc(-c2ccccc2)cc1	.
1	0.64	-5.9	.	2.3	-1.4	Cc1ccnc(NC(=O)COc2ccc3c(c2)CCC3)c1	-7
0	0.7	-2.4	i	2.0	4.1	CC1(C)CC(NC(=O)c2c(N)no[n+]2[O-])CC(C)(C)N1	-12
-9	0.72	1.9	i	-0.2	-0.5	CCCCN(Cc1cc2cccc(C)c2[nH]c1=O)S(C)(=O)=O	-6
3	0.71	-1.7	i	1.3	4.0	CCCCNC1=NCCS1	-7
1	0.75	1.1	.	3.0	-1.4	Cc1ccccc1C(=O)OCCCN=C1NS(=O)(=O)c2ccccc21	-1
-4	0.7	-3.0	i	3.9	-5.4	COc1ccccc1NS(=O)(=O)c1cc(C(=O)NCC(c2ccc(F)cc2)N2CCOCC2)ccc1C (stereo unspecified)	.
9	0.72	-6.4	i	13	5.3	O=C(CCN1C(=O)/C(=C\C=C\c2ccccc2)SC1=S)Nc1cccc(C(=O)O)c1	6
-6	0.66	-1.8	i	0.1	-3.5	Cc1ccccc1C(=O)NNc1ccc(-c2csnn2)cc1	.
3	0.7	10	i	6.8	2.5	O=C(NCc1ccccc1)C(=O)NCC1OCCCN1S(=O)(=O)c1cccs1 (stereo unspecified)	-8

Screening results as filed in PubChem BioAssay.
